Screening results deposited in PubChem BioAssay by National Center for Advancing Translational Sciences (NCATS).
Menin-MLL FL inh: inhibitors of human menin-MLL interaction, wild-type MLL peptide; AID 1766; 290,000 tested, under 10 active; FP activity change, % at 61.4 µM; Fluorescence polarization, fluorescein-MLL peptide displacement from menin; inconclusive = falling polarisation curve, or a change in total fluorescence; inactive = total fluorescence flat and polarisation flat or rising; no compound was filed as active; the % refers to the polarisation; negative = inhibition;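 note: % of control where 0% means no effect; inhibitors lower the polarisation; unlabelled MLL peptide was the positive control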
TRPML1 blocker: blocks the human TRPML1 channel; Q9GZU1; TRPML1-inducible cells, Ca2+ dye fluorescence, FDSS; hits give low values; inhibition of EC80 agonist-evoked calcium signal; activity change, negative = inhibition, % (test concentration not listed); 390,000 tested, 0.02% active; in the data active means activity change below about -50%; inconclusive means about -30% to -50%; inactive means above about -30%;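 note: stimulus is agonist 54-4 at its EC80 concentration; % is set by controls: 0 for no effect and ±100 for the full control effect; compound concentration not given in the record; the text of the record puts the active cut at -80%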
Target sequence (Q9GZU1 whole entry, looked up): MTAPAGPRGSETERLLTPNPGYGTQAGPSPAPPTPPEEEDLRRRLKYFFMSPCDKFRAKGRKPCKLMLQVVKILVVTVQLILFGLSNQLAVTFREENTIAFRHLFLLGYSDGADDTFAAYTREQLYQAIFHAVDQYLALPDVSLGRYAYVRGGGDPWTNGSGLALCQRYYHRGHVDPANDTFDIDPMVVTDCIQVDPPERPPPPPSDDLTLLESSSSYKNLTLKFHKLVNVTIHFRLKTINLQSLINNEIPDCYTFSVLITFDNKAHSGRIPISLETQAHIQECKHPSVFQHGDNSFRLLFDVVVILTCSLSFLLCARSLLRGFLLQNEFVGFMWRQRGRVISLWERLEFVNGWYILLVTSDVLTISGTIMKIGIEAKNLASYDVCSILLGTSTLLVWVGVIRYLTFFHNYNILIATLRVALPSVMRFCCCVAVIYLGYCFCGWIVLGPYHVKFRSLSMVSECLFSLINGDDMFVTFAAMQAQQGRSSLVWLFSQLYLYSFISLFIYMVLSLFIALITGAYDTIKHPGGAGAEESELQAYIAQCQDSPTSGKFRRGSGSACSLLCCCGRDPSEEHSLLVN
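TRPML1-DL cells, Tet-induced overnight (~16 h, 37 °C) at 1,500 cells/well, were loaded with Ca8 no-wash dye plus quencher for 45-90 min at room temperature. Compounds were pinned during FDSS kinetic reading; agonist 54-4 at EC80 (4 uM final) then added.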
TRPML1 ag: agonists of human TRPML1 channel | TRPML1-expressing cells, Ca2+ dye fluorescence, FDSS; host cell line not named in the record; reference of the full effect not given here | activation, % (test concentration not listed) | 410,000 tested, 0.12% active | AID 624414; in the data active = activation above about 50%; inconclusive = about 30% to 50%; inactive = below about 30%; note: 0% is about no effect; the text of the record puts the active cut at 80%
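TRPML1-DL cells, Tet-induced overnight (~16 h, 37 degrees C), loaded 45-90 min at room temperature with Ca8 no-wash calcium dye plus quencher. FDSS fluorescence: 10 s baseline, compound pin-transfer, 110 s agonist read, then EC80 54-4 (4uM final) and 110 s antagonist read.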
Sfp inh: inhibitors of Bacillus subtilis Sfp phosphopantetheinyl transferase | Potency, µM, inactives show max response, negative = inhibition, hits mostly inhibitors | Q9F4F7 | Biochemical Sfp PPTase activity, qHTS | 310,000 tested, 3.5% active; active = well fitted inhibition curve with a large enough effect; inconclusive = small, poorly fitted or top-dose-only effect, or another doubt; inactive = no such curve, though single readings can be large or run the other way;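 note: the enzyme is Sfp with the accession as filed and its product quenches rhodamine fluorescence; potency is the fitted concentration of half-maximal effect; 0% = enzyme reaction without inhibitor and -100% = no enzyme wells; top concentration of the series not given in the record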
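With Hepes-Na pH 7.6 buffer containing 10 mM MgCl2, Sfp (15 nM) modified BHQ-2-YbbR (12.5 uM) using rhodamine-CoA (5 uM). Two reads 30 minutes apart at 525/598 nm yielded each well's rate.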
PINK1 modulator: changes PINK1 expression; PINK1 immunofluorescence, high-content cytometry, 24 h; Potency, µM (top dose mostly 76.6 µM), without a hit: at the highest dose activation (PINK1 increase), most hits filed as activators; 410,000 tested, 0.2% active; AID 624263; active = well fitted activation curve with a large enough effect; inconclusive = small, poorly fitted or top-dose-only effect; inactive = flat fitted curve, though single readings scatter; cell line not stated here;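 note: potency is the fitted concentration of half-maximal effect; % of control where 0% means no effect; nearly all actives have a fitted effect of over 65% in size; a mitochondrial uncoupler was the plate control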
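Stable cell line treated 24 h with compounds at 5 concentrations (CCCP controls), then fixed and immunostained for PINK1 plus nuclear and cell stains; PINK1 immunofluorescence quantified by laser-scanning microplate cytometry.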
TRPV1 potentiator: enhances activation of the human vanilloid receptor TRPV1; Q8NER1; TRPV1-expressing cells, Fluo-8 calcium influx, capsaicin EC20 potentiation; host cell line not named in the record; control for the full effect not named in the record; potentiation, % at 8.33 µM; 320,000 tested, 0.02% active; active means potentiation above 80%; inconclusive means 30% to 80%; inactive means below 30%; note: 0% is about no effect
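Cells expressing TRPV1 were dye-loaded with Fluo-8 and read kinetically: 10 s baseline, 3 min after compound (agonist portion), then 2 min after EC20 capsaicin (allosteric enhancer portion). Calcium-bound dye fluorescence at 480/520 nm.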
ClpP mod: qHTS Assay for Activators of ClpP; purified B. subtilis ClpP, FRET peptide cleavage, 20 min; 340,000 tested, 1.9% active; AID 651965, 2013; Potency, µM (highest dose often 57.5 µM), inactives show at the highest dose activity change, negative = active; ATP-dependent Clp protease proteolytic subunit (Bacillus subtilis (strain 168)), P80244; active = well fitted falling curve with a large enough effect; inconclusive = small, poorly fitted or top-dose-only effect; inactive = no such curve, though single readings can be large or run the other way; note: potency is the fitted concentration of half-maximal effect; the source files actives as falling curves though it sought activators and does not explain the sign; nearly all actives have a fitted effect of over 65% in size; many hits overshoot -100%
Target sequence (P80244 whole entry, looked up): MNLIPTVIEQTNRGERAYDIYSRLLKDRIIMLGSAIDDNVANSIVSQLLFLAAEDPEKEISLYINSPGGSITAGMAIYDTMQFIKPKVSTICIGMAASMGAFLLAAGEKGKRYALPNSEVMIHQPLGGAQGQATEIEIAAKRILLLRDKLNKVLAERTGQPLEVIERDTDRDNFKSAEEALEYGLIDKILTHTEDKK
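FRET quenching reversal measured ClpP activation: 10 microg/mL B. subtilis ClpP at pH 8 with the FRET-FV decapeptide, read at 430 nm after 320 nm excitation. The 20-min minus 0-min signal was scaled between DMSO/no-enzyme wells and ADEP (5.8 microM final).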
Active calls of the source: *; ? = inconclusive; / = not tested or not shown; & = joins results of further samples; [ ] = remark or other dose.

SMILES | Menin-MLL FL inh | TRPML1 blocker | TRPML1 ag | Sfp inh | PINK1 modulator | TRPV1 potentiator | ClpP mod
O=C(OCc1cn([C@H]2C[C@H](c3ccc(Cl)cc3)N(CC3CCCCC3)C[C@@H]2O)nn1)c1ccccc1 | / | -4 | -0.3 | / | 1.7% | / | -0.4%
CCNc1cc(O)ccc1C | / | 8 | 0.3 | / | 0.7% | 6 | -3.0%
O=C(c1ccc(Cl)cc1Cl)N1CCC(c2nc3c(nnn3Cc3ccco3)c(=O)[nH]2)CC1 | -1.7 | -1 | -1.3 | -22% | 0.2% | 22 | 4.2%
C=C(C)[C@@H](O)COc1c2ccoc2cc2oc(=O)ccc12 | / | -4 | -0.6 | / | 1.0% | -2 | -4.0%
O=C(c1n[nH]c2ccccc12)N1CCOCC1 | 6.4 | 6 | 0.3 | 28% | -0.3% | -56 | 1.4%
COc1ccc(NC(=O)Cc2coc3ccc4ccccc4c23)cc1S(=O)(=O)N1CCOCC1 | 4.6 | 2 | -0.3 | -9% | -0.2% | -10 | -17%
Cc1cc(N2CCCCCC2)nc(-c2ccccc2O)n1 | 2.0 | 33 | 2.4 | -9% | -0.4% | 0 | 1.2%
COc1cccc(CC(=O)OCC(=O)NC2(C#N)CCCCC2)c1 | / | -10 | -0.2 | / | -0.7% | 7 | ?
CCn1c(CC(=O)Nc2ccccc2)nnc1SCC(=O)Nc1ccccc1C(=O)OC | 2.8 | -8 | -1.1 | 13% | -0.3% | 9 | 0.5%
CCOC(=O)c1c(C)[nH]c(C(=O)COC(=O)c2ccc([N+](=O)[O-])o2)c1C | / | -11 | -0.4 | / | -1.1% | / | 0.3%
CCN(C(=S)NCc1ccccc1)c1cccc2ccccc12 | -0.6 | 9 | 1.4 | 8% | 2.4% | 6 | -1.6%
CCOC(=O)N1CCN(C(=O)CCCn2c(=O)[nH]c3ccccc3c2=O)CC1 | 0.5 | -3 | 0.7 | 20% | -0.4% | -13 | -18%
CC1CN(C(=O)CCC(=O)NCc2ccccc2)c2ccccc2O1 (configuration not stated) | 3.6 | 6 | -0.4 | 8% | 1.7% | 6 | 2.0%
Cc1ccc(SCCNCc2ccco2)cc1 | -1.1 | / | / | 11% | -0.3% | -11 | -8.9%
Cc1cc2cc(CN(Cc3ccco3)C(=S)NCC3CCCO3)c(=O)[nH]c2cc1C (configuration not stated) | -0.7 | 17 | 2.3 | 50µM* | 1.9% | -19 | -22%
CCOC(=O)C1(CCOC)CCN(Cc2ccc(COC)o2)CC1 | 5.3 | 2 | 0.1 | -10% | -1.0% | 9 | /
COc1cccc(SCc2noc(C(=O)NC(C)C)c2C(=O)O)c1 | 1.0 | -9 | -0.4 | 11% | 0.5% | 19 | 1.5%
Cc1ccc(NC(=S)NCCN2CCOCC2)cc1F | 2.1 | -9 | -0.3 | 21% | 2.5% | -10 | 0.0%
O=C(Nc1ccccc1)c1ccc(N2CCN(c3ccccc3)CC2)c(S(=O)(=O)N2CCOCC2)c1 | -0.9 | 5 | 0.5 | 2% | / | 0 | -0.8%
OC(COC1CCCCC1)CN1CCCCC1 (configuration not stated) | / | 20 | -0.6 | -11% | -0.4% | -27 | -1.9%
O=C(COC(=O)Cc1ccc(Cl)cc1)NCc1cccs1 | / | 9 | -1.6 | / | 2.7% | / | 2.2%
COc1ccc(C(=O)CSc2nnc(NC(=O)C3CC(=O)N(c4ccccc4C)C3)s2)cc1 (configuration not stated) | 4.0 | -15 | -0.4 | -14% | 2.1% | 17 | -1.6%
Cc1nc2ccc(S(=O)(=O)NC(C(=O)Nc3nccs3)C(C)C)cc2s1 (configuration not stated) | 0.2 | 0 | 1.0 | 7% | 0.1% | 3 | 1.0%
Cc1ccccc1NC(=O)c1c(O)c2cccc3c2n(c1=O)CC3 | 4.6 | / | / | 16% | / | -1 | /
COc1ccccc1N1CCN(C(=O)CCc2ccc(S(=O)(=O)NCC(C)C)cc2)CC1 | -0.6 | 14 | 4.5 | -9% | -1.5% | 4 | 4.4%
CC(C(=O)Nc1ccc(N(C)C)cc1)N1C(=O)c2ccccc2S1(=O)=O (configuration not stated) | / | 7 | -0.7 | / | 0.8% | 10 | -2.1%
Cc1cccc(N2C(=O)C3CCCN3C2=S)c1C (configuration not stated) | / | -6 | -0.7 | / | -1.0% | -14 | 0.1%
C[C@@H](NC(=O)c1nc[nH]c1C(=O)N1CCc2ccccc2C1)c1ccccc1 | / | -6 | 1.0 | / | 2.9% | 2 | -2.4%
O=C(N[C@H]1CCCCNC1=O)c1cc(COc2ccc(F)cc2F)on1 | -1.4 | -1 | -1.3 | 21% | 0.3% | 3 | -0.4%
O=C(c1ccc(-n2cccc2)cc1)N1CCOCC1 | 3.1 | -1 | -0.7 | 17% | -0.5% | -11 | 2.6%
COc1ccccc1C#Cc1cnc2c(c1)C(=O)N([C@H](C)CO)C[C@@H](C)[C@@H](CN(C)C(=O)c1ccc3c(c1)OCO3)O2 | / | -9 | -0.2 | / | -1.1% | / | -16%
COc1cc(NC(=O)c2cc(-c3ccco3)on2)c(OC)cc1Cl | 5.0 | 8 | -0.1 | 8% | 7.2%[38.3 µM] | 6 | -27%
C=C1c2ccccc2NC(=S)N1Cc1ccc2c(c1)OCO2 | 5.5 | 4 | -0.1 | -20% | 3.1% | 7 | /
OC1CCN(C(=S)Nc2ccc(Nc3ccccc3)cc2)CC1 | -1.4 | 15 | -0.8 | 18µM* | 4.2% | 26 | /
O=C1CN(C(=O)c2ccc(S(=O)(=O)N3CCCC3)cc2)C(c2ccc(F)cc2)c2cc(Br)ccc2N1 (configuration not stated) | / | 41 | 2.4 | / | 1.3% | / | -3.4%
Cc1cc(C)c2c(=O)[nH]cnc2n1 | -3.2 | 4 | 0.5 | 8% | 1.5% | ? | -6.0%
CN(Cc1c(C(=O)N2CCc3ccccc3C2)nc2ccc(Cl)cn12)C(C1CC1)C1CC1 | -0.8 | -2 | 0.6 | -4% | -2.5% | -39 | -1.5%
O=C(CC1N=C2c3ccccc3N=C(SCc3ccc(F)cc3)N2C1=O)NCc1cccs1 (configuration not stated) | / | -15 | 1.0 | / | 0.5% | / | 0.6%
CN1CCN(c2nc3c(c(=O)[nH]c(=O)n3C)n2CC(N)=O)CC1 | 5.5 | 10 | 3.9 | 16% | 1.6%[38.3 µM] | -6 | -0.1%
COc1ccc(C2Nc3ccccc3C(=O)N2NS(=O)(=O)c2ccc(C)cc2)cc1 (configuration not stated) | 0.5 | 5 | 3.6 | 4% | 3.4% | 5 | /
COc1cc(CNc2ncnc3c2ncn3[C@H]2CN(CCN3CCOCC3)C[C@@H](CO)O2)cc(OC)c1OC | / | / | -0.3 | / | 2.5% | / | -3.3%
CCOC(=O)C1CCN(C(=O)C2CCN(S(=O)(=O)c3cc(Cl)ccc3OCC)CC2)CC1 | -4.3 | -2 | 0.8 | 5% | -1.7% | -6 | -4.9%
Cc1cc(C)c2c(n1)SCC(=O)N2CC(=O)Nc1c(C)cccc1C | 1.7 | 6&22 | 0.4&-0.3 | 18% | 0.4%&2.8% | 3 | -2.4%&1.5%
CC1CCN(C(=O)c2cc3c(=O)n4ccccc4nc3s2)CC1 | 3.9 | 4 | 0.8 | 20% | -0.9% | -2 | /
CCC1(CC)Cc2ccccc2-c2nc(NN)[nH]c(=O)c21 | -0.1 | 23 | 2.2 | ? | -0.7% | / | /
Cc1nc(-c2ccccc2)sc1C(=O)NN | 0.4 | 8 | -0.3 | 10% | 11% | ? | 0.9%
COc1cc(/C=N/NC(=O)c2cccnc2)ccc1OCC(=O)N1CCOCC1 | 1.6 | -12 | -0.4 | 25% | 1.3% | 12 | -1.1%
CCCC(=O)NC(C)c1nc2ccccc2[nH]1 (configuration not stated) | 2.9 | -6 | -0.2 | 17% | 1.3% | -5 | -1.8%
Cc1cc(OCC(=O)NCCCN2CCCC2=O)c2c(C)cc(=O)oc2c1 | / | 2 | 0.2 | 8% | 0.4% | 4 | 3.9%
CC(=O)COc1ccc2c(-c3cccc([N+](=O)[O-])c3)cc(=O)oc2c1 | -1.5 | -1 | -1.2 | 5% | -1.2% | -1 | 1.5%
COc1ccc(Cn2nc(C)cc2C)cc1OC | 9.9 | -2 | 0.9 | 6% | 0.0% | 5 | -0.4%
Nc1[nH]c(C(=O)c2ccccc2)c(-c2ccc(Cl)c(F)c2)c1C(=O)NCCc1c[nH]c2ccccc12 | / | / | -0.3 | / | 4.1% | / | -1.9%
CCC(=O)Nc1cc2c(cc1Cl)-c1ccccc1C2 | / | -6 | -0.3 | / | 3.0% | / | -1.5%
CCn1c(=O)c2cc(C(=O)Nc3cccc(C(C)=O)c3)sc2c2ccccc21 | -1.2 | -3 | -0.2 | -8% | 8.5% | -4 | -5.6%
CC(C)CSc1nc2c(=O)[nH][nH]c(=O)c2n1Cc1ccccc1 | 0.3 | -7 | -0.7 | 6% | 0.4% | -6 | -2.4%
CCOC(=O)c1cc(-c2ccccc2)n(CCC(=O)Nc2nc3c(C)cccc3s2)c1C | / | 4 | 1.6 | / | 1.9% | / | -13%
O=C(COc1ccccc1)N1CCN=C1SCc1cccnc1 | -1.3 | 10 | 0.3 | 11% | -0.4% | 7 | 0.8%
O=C1c2ccsc2SCCN1Cc1ccc(F)cc1 | 2.3 | -3 | 2.8 | -4% | -1.4% | 10 | -1.1%
CC(C)COc1ccc(C(=O)OCCN2CCOCC2)cc1 | -0.8 | 13 | 0.0 | -11% | 1.0% | 14 | 1.1%
CC(=O)c1c(C)[nH]c(C(=O)OCC(=O)c2c[nH]c3ccccc23)c1C | / | 18 | 0.8 | / | 0.9% | 13 | -1.8%
Cc1nn(-c2ccccc2)c(C)c1NC(=O)COC(=O)c1cc(Br)ccc1O | / | -5 | 0.0 | / | 1.6% | 7 | -16%
Cn1c(CNc2ccccc2O)nc2ccccc21 | -5.3 | 21 | -0.4 | 45µM* | -0.6% | / | -7.9%
